FGF22 binding: binders of human FGF22 protein, primary screen, FGF22 synaptogenesis inhibitor project, biophysical, thermal shift, single point | actives 1.5% (n = 340,000) | AID 651658, 2012 | recombinant FGF22 thermal shift, SYPRO orange fluorescence; percent of sucrose octasulfate shift, DMSO zero | Fibroblast growth factor 22 (Homo sapiens), Q9HCT0 | calls only at 9.99 µM;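 active means melting point raised past a set limit in the mean and every replicate; inconclusive means no clear call; three in four hits are not shown here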
Target sequence (Q9HCT0 whole entry, looked up): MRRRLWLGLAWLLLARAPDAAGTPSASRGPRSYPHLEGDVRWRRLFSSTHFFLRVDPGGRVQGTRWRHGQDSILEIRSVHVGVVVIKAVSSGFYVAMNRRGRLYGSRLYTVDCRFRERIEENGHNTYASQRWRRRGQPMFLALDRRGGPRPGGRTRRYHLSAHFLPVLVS
Ecoli rRNA inh: reduced GFP signal of wild-type E. coli, primary screen, bacterial rRNA inhibitor project, GFP/RFP fluorescence, OD600, single point. GFP signal change (wild-type ribosome), % (concentration not given with the values). AID 720706, 2013. E. coli WT GFP vs humanized-ribosome RFP mutants, 24 h; active compounds read low; DMSO median 0, no signal -100. actives 1.6% (n = 350,000);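 active means significant combined selectivity score with lowered wild-type GFP, culture density cut under 30%, mutant RFP and density less affected; inactive means any of these conditions unmet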; further: one replicate is shown; some compounds called inactive have numbers as strong as hits
MLL AF4-AF9 inh: inhibitors of AF4 peptide binding to AF9, primary screen, biochemical, AlphaScreen, biotin-AF4 peptide, FLAG-AF9, single point | Protein AF-9 (Homo sapiens), P42568 | AID 651704, 2012 | inhibition, % at 10 µM | actives 0.47% (n = 350,000);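 active means every replicate reaching a set inhibition limit, whatever the replicate mean, cut at about 25% in these data; inconclusive means mean inhibition reaches that limit but some replicates miss it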;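 further: 0% = plate neutral control median and 100% = total signal loss; the record names both 10 and 1 µM as test concentration; the first replicate is given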
Target sequence (P42568 whole entry, looked up): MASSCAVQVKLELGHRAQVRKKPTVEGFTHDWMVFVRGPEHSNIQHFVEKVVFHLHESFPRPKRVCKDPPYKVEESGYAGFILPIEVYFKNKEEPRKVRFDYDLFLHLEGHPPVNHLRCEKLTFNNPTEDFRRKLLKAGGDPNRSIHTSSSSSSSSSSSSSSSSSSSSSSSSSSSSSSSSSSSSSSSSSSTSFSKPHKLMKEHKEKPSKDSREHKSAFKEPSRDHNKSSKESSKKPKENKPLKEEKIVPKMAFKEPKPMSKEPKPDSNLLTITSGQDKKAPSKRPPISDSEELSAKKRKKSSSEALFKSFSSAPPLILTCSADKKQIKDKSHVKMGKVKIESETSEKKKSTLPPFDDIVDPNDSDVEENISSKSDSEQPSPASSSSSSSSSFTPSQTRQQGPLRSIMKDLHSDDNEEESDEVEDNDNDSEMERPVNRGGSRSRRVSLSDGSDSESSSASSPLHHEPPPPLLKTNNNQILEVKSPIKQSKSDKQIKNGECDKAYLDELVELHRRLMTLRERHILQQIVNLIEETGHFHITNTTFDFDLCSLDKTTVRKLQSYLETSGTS
Vif TR-FRET: inhibitors of Vif binding to APOBEC3G peptide, primary screen, biochemical, TR-FRET, GST-Vif 1-94, biotin-A3G peptide, dose response retest (AID 1117319); TR-FRET GST-Vif / biotin-A3G peptide binding; higher % means a stronger effect; test concentration not given here; strong numbers were not always called active; one-dose inhibition, %; IC50 in µM for titrated hits; actives 0.57% (n = 260,000);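 active means above the screen mean plus three standard deviations and confirmed in dose response; inconclusive means results disagree or hit not tested in dose response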;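 further: Vif residues 1-94 fused to GST binding biotinylated APOBEC3G peptide 110-148; 0% = full assay without inhibitor and 100% = GST in place of GST-Vif; retest series ran down from 100 µM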
ALR inh: inhibitors of human ALR sulfhydryl oxidase, primary screen, biochemical, H2O2 detection, HRP-luminol luminescence, single point. FAD-linked sulfhydryl oxidase ALR (Homo sapiens), P55789. purified ALR, DTT oxidation. inhibition, % (no concentration beside the values). actives 3.8% (n = 290,000);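 active means mean and each replicate at 75% or more; inconclusive means only one of the two met; inactive means neither met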;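 further: stock transfer was 7.5 nL into about 7.5 µL; 0% = neutral wells and 100% = wells with inactivated enzyme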
Target sequence (P55789 whole entry, looked up): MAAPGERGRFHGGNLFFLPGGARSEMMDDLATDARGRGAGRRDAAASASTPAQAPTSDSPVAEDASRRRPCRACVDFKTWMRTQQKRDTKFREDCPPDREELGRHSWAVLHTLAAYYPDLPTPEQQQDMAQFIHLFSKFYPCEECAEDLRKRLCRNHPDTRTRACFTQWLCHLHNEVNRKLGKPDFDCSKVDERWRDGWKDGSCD
E coli growth: E. coli growth inhibition, primary screen, OD600 | Escherichia coli growth, 23 h; active compounds read low | OD600 absorbance (concentration not given with the values) | actives 0.21% (n = 330,000);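 active means OD600 absorbance below the run mean of sample wells minus 3.6 SD, in any replicate, cut at about 0.56 in these data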;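 further: stock transfer was 300 nL into about 60 µL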
HNF4A DNA FP: change in binding of human HNF4A to DNA, primary screen, biochemical, fluorescence polarization, FITC-DNA | 1 h | Hepatocyte nuclear factor 4-alpha (Homo sapiens), P41235 | activity change, % at 10 µM | actives 0.3% (n = 360,000); in the data active means activity change above about 30%, passing the limit was not always enough;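 further: controls were the assay level and a saturating level of protein; the project sought stronger binding though the title names inhibitors; some compounds called inactive have numbers as strong as hits; positive values seem to mean higher polarization but the record does not say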
Ecoli rRNA inh OD600: also measured in Ecoli rRNA inh; calls as there; OD600 change, %; measured here: OD600 growth;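 optical density of the mix in the first replicate; 0 = DMSO median and -100 = no signal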
Ecoli rRNA inh RFP: also measured in Ecoli rRNA inh; calls as there; RFP signal change, %; measured here: RFP humanized mutant strains;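 first replicate; 0 = DMSO median and -100 = no signal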
The depositor's hits bear a star; i = inactive; u = inconclusive; x = not tested or not shown; & = joins results of further samples. The list is partial, so the mix of outcomes need not match the whole.

SMILES	FGF22 binding	Ecoli rRNA inh	Ecoli rRNA inh OD600	Ecoli rRNA inh RFP	MLL AF4-AF9 inh	Vif TR-FRET	ALR inh	E coli growth	HNF4A DNA FP
Cn1cnc(S(=O)(=O)N2CC[C@H]3[C@H](CO)Nc4ccc(-c5ccc(F)cc5)cc4[C@H]32)c1	i	-7.5	-11.0	4.3	14.7	x	x	x	x
Cn1c(NCc2ccco2)nc2c1c(=O)n(Cc1ccc(Cl)cc1Cl)c(=O)n2C	x	x	x	x	x	6.7%&-2.9%	-12.0	0.73	3.6
COc1ccccc1Nc1nnc(SCC(=O)NC(=O)Nc2ccc3c(c2)OCCO3)s1	x	x	x	x	x	10.0%	13.7	x	2.0
Cc1nonc1NC(=O)CSc1nc2ccc(Cl)cc2[nH]1	i	-3.3	-9.4	-2.7	1.0	x	-9.5	0.639	0.5
O=Cc1cnc(N2CCN(c3ccccc3)CC2)s1	i	8.3	2.8	0.7	0.6	x	x	0.678	5.4
C[C@H](CO)N1C[C@H](C)[C@@H](CN(C)CC2CC2)Oc2c(NS(=O)(=O)c3cn(C)cn3)cccc2C1=O	i	2.0	1.6	-0.8	-4.3	x	x	x	x
CCc1ccc(C(=O)/C=C/c2cnn(C)c2C)s1	x	x	x	x	x	-1.6%	49.9	0.696	2.1
Cc1c(O)c(CN2CCCC2)cc2c3c(c(=O)oc12)CCC3	x	1.4	1.3	0.7	x	3.0%	x	0.709	0.3
O=C(Nc1cnc2ccccc2c1)N1CCCCC1	x	x	x	x	x	1.9%	-9.9	0.721	-4.0
COC(=O)C(NS(=O)(=O)c1ccc(NC(C)=O)cc1)C(C)C (configuration not stated)	i	8.6	7.6	-4.1	3.4	6.0%	-2.3	0.653	-0.2
COc1ccc2c3c(n(C)c2c1)[C@@H](CO)N(C(=O)Nc1ccc(F)cc1)CC31CCN(C(=O)Cc2ccncc2)CC1	i	-1.9	-2.9	-0.7	2.4	x	x	x	x
CCCNC(=O)C1(C)CCN(C(=O)c2cc(F)ccc2C)C1 (configuration not stated)	i	14.3	10.5	2.1	6.6	x	x	x	3.7
CCOC(=O)Cn1nc(C)c2c1CCCC2=O	x	x	x	x	x	-2.1%	-19.0	0.708	4.7
CN1CCN(c2ccc(S(=O)(=O)N3CCOCC3)cc2NC(=O)COc2ccc(F)cc2Cl)CC1	i	-7.8	-17.8	2.6	4.5	x	-2.4	0.735	-3.5
Cc1cc(C=C2C(=O)c3ccccc3C2=O)c(C)n1-c1ccc(Cl)cc1	i	-21.0	2.5	3.0	-2.6	5.1%	x	x	78.7
NNC(=O)CCC(=O)Nc1ccccc1	i	9.9	10.8	-7.2	-3.5	0.1%	-5.8	0.699	-4.2
O=C1NCCCC1C(=O)N/N=C/c1ccc([N+](=O)[O-])cc1 (configuration not stated)	i	15.5	7.1	-1.6	-0.1	19.6%	-8.5	x	5.1
COc1ccc(NC(=O)c2nc(SC)ncc2Cl)cc1	i	-7.1	-3.5	-3.4	-1.7	0.9%	-2.4	0.691	7.0
CCC1CCC2(CC1)NC(=O)N(CC(=O)N1CCc3ccccc31)C2=O (configuration not stated)	i	4.6	3.9	-5.3	-1.0	-1.7%	-8.9	0.707	-6.1
COc1cc(CN(C(=S)NCC(=O)NC2CC2)C2CCCC2)cc(OC)c1OC	i	11.0	11.4	-2.9	-6.5	-7.0%	-12.7	0.672	-1.0
O=C(COC(=O)c1cccc(-n2cnnn2)c1)c1ccc(Br)cc1	i	2.5	-0.3	-0.8	0.2	-22.6%	-0.7	0.655	-1.2
COCC(=O)Nc1ccc2c(c1)C(=O)N(C)C[C@H](OC)[C@H](C)CN(CC1CCCCC1)[C@@H](C)CO2	i	-2.2	-2.1	-1.2	3.6	x	x	x	x
Cc1ccc(F)cc1NC(=O)COC(=O)COc1ccc(C#N)cc1	i	-2.4	8.2	-5.1	-1.4	1.4%	x	0.693	0.5
CCS(=O)(=O)N1CCCCN2[C@H](CO)[C@@H](c3ccc(-c4ccc(C#N)cc4)cc3)[C@H]2C1	i	-0.4	-9.8	-3.8	7.8	x	x	x	x
COc1ccc(CN(C)C[C@H]2OCCCC[C@@H](C)Oc3ccc(NS(=O)(=O)c4ccccc4)cc3C(=O)N([C@H](C)CO)C[C@H]2C)cc1	i	5.2	-9.0	1.4	7.9	x	x	x	x
CCn1c2ccccc2c2cc(NC(=O)CSc3nnc(-c4cccc(F)c4)o3)ccc21	x	x	x	x	x	-0.3%	2.5	0.691	-0.8
C/C(=N\NC(=O)c1nnn(-c2nonc2N)c1-c1ccc(Cl)c(Cl)c1)c1ccncc1	i	-14.7	-24.0	2.1	-14.5	x	1.1	x	0.5
Cc1cccc(CSCCNC(=O)COc2ccc(Cl)cc2)c1	i	0.1	0.9	1.0	-2.9	2.6%	-0.2	0.67	1.3
Cc1cc(-c2cc(C(=O)NCc3ccccc3)on2)nc(NC2CCCC2)n1	i	-15.8	-22.8	-1.7	x	3.6%	-0.3	0.62	-3.1
C[C@@H]1CN([C@H](C)CO)C(=O)Cc2cc(NC(=O)Nc3ccc(C(F)(F)F)cc3)ccc2O[C@@H]1CN(C)C	i	2.0	-12.6	1.6	3.5	x	x	x	x
CCOC(=O)N1CCN(c2c(N3CCN(c4ccccn4)CC3)c(=O)c2=O)CC1	i	0.2	2.5	-0.4	-3.0	30.9%	13.6	0.735	-4.1
CCOC(=O)c1c(C)[nH]c(C(=O)OC(C)C(=O)NC2CCCCC2C)c1C (configuration not stated)	i	-6.9	6.9	-4.1	-0.8	-9.4%	0.7	0.679	5.5
COC(=O)c1nc(NC(=O)C(C)C)n[nH]1	i	7.2	-1.8	-1.8	-0.9	u	4.7	0.718	3.3
CCC(C(=O)O)n1nnc(-c2ccc(OCc3ccccc3)c(OC)c2)n1 (configuration not stated)	i	4.5	7.0	1.1	-4.0	x	2.1	x	x
CCCOc1ccc(N2CC(C(=O)Nc3ccccc3C(=O)NCc3ccco3)CC2=O)cc1 (configuration not stated)	i	11.2	6.3	-6.9	8.5	0.7%	-6.9	0.679	2.0
CCCc1cc(C(=O)Nc2ccn(Cc3ccc(C)cc3)n2)no1	i	-7.4	-2.4	10.3	0.1	-21.9%	x	0.627	1.3
C[C@@H]1CN([C@H](C)CO)S(=O)(=O)c2ccc(C#Cc3ccc(F)cc3)cc2O[C@@H]1CN(C)S(=O)(=O)c1ccc(F)cc1	i	6.8	13.6	-3.9	-1.5	x	x	x	x
CCOC(=O)c1c(NC(=O)c2cc(-c3ccc(O)cc3)on2)sc(C(C)=O)c1C	i	-0.4	4.8	-2.8	1.7	0.8%	-18.1	0.772	153.8*
Cc1ccc(NC2CCCN(C(=O)C3CCCCC3)C2)cc1C (configuration not stated)	i	-10.9	-23.0	-2.0	6.4	x	98.9*	0.668	2.8
CSc1nc2c(ccc3ccccc32)o1	x	x	x	x	x	14.8%	-1.5	0.711	4.7
COc1ccc(-n2c(=O)cc(N3CCOCC3)[nH]c2=O)cc1	x	x	x	x	x	15.2%	15.7	0.67	-0.7
COc1cc2ccccc2cc1C(=O)OCC(=O)N1CCOCC1	x	x	x	x	x	u	-20.6	0.685	-3.1
Cc1cc(-c2ccccc2)n2ncnc2n1	i	0.8	4.4	-1.0	-2.7	u	-7.1	0.633	-3.4
CCN(C[C@H]1N[C@H](CO)[C@@H]1c1ccc(-c2ccccc2)cc1)C(=O)COC	i	1.5	-8.0	-1.2	1.3	x	x	x	x
COc1cc(OC)cc(-c2c(-c3ccc(F)cc3)c3cc(-c4ccc5cc[nH]c5c4)ccc3n2C)c1	i	6.4	6.7	4.7	x	x	0.1	0.684	6.6
O=C(Cn1cnc([N+](=O)[O-])n1)N/N=C/c1cc(Cl)ccc1O	i	2.1	4.5	-0.2	2.1	0.3%	-15.0	x	3.1
COc1ccc(Br)cc1CN(C)CC(=O)Nc1ccccc1Cl	i	-38.5	-64.0	-10.7	-1.9	x	-10.6	0.721	0.0
C[C@@H]1CN([C@@H](C)CO)S(=O)(=O)c2ccc(C#CC3CCCC3)cc2O[C@H]1CN(C)Cc1cccnc1	i	-10.0	-15.9	0.3	4.9	x	x	x	x
CCOc1ccccc1CN1CCN(Cc2ccc(C)o2)CC1CCO (configuration not stated)	i	13.6	10.8	1.0	3.2	x	3.0	0.726	3.6
CCCC#Cc1ccc2c(c1)O[C@@H](CN(C)C(=O)CC1CC1)[C@@H](C)CN([C@H](C)CO)S2(=O)=O	i	-2.5	-13.2	3.5	1.9	x	x	x	x
CCOc1ccc(S(=O)(=O)n2cc(-c3ccc(F)cc3)c(N)n2)cc1	x	x	x	x	x	-5.1%	-5.3	0.707	0.2
Cc1cc(NC(=O)Cc2c(F)cccc2Cl)no1	x	x	x	x	x	0.8%	-10.7	0.681	0.3
CC(=O)Nc1ccccc1-c1ccccc1[N+](=O)[O-]	x	1.9	7.7	0.0	-4.0	-1.9%	x	0.695	1.6
COc1ccc(NS(=O)(=O)c2ccc(NC(=O)C3CC3)cc2)cc1	i	-4.0	-10.9	0.9	-0.5	x	-19.5	0.714	-0.5

In the list so far, 10 have a Cl atom.
SMILES	FGF22 binding	Ecoli rRNA inh	Ecoli rRNA inh OD600	Ecoli rRNA inh RFP	MLL AF4-AF9 inh	Vif TR-FRET	ALR inh	E coli growth	HNF4A DNA FP
Cn1c(NCc2ccco2)nc2c1c(=O)n(Cc1ccc(Cl)cc1Cl)c(=O)n2C	x	x	x	x	x	6.7%&-2.9%	-12.0	0.73	3.6
Cc1nonc1NC(=O)CSc1nc2ccc(Cl)cc2[nH]1	i	-3.3	-9.4	-2.7	1.0	x	-9.5	0.639	0.5
CN1CCN(c2ccc(S(=O)(=O)N3CCOCC3)cc2NC(=O)COc2ccc(F)cc2Cl)CC1	i	-7.8	-17.8	2.6	4.5	x	-2.4	0.735	-3.5
Cc1cc(C=C2C(=O)c3ccccc3C2=O)c(C)n1-c1ccc(Cl)cc1	i	-21.0	2.5	3.0	-2.6	5.1%	x	x	78.7
COc1ccc(NC(=O)c2nc(SC)ncc2Cl)cc1	i	-7.1	-3.5	-3.4	-1.7	0.9%	-2.4	0.691	7.0
C/C(=N\NC(=O)c1nnn(-c2nonc2N)c1-c1ccc(Cl)c(Cl)c1)c1ccncc1	i	-14.7	-24.0	2.1	-14.5	x	1.1	x	0.5
Cc1cccc(CSCCNC(=O)COc2ccc(Cl)cc2)c1	i	0.1	0.9	1.0	-2.9	2.6%	-0.2	0.67	1.3
O=C(Cn1cnc([N+](=O)[O-])n1)N/N=C/c1cc(Cl)ccc1O	i	2.1	4.5	-0.2	2.1	0.3%	-15.0	x	3.1
COc1ccc(Br)cc1CN(C)CC(=O)Nc1ccccc1Cl	i	-38.5	-64.0	-10.7	-1.9	x	-10.6	0.721	0.0
Cc1cc(NC(=O)Cc2c(F)cccc2Cl)no1	x	x	x	x	x	0.8%	-10.7	0.681	0.3
